# Screening results: PubChem, several laboratories
# GALR2 agonist – GALR2 receptor agonists, primary screen, cell-based. Galanin receptor type 2 (Homo sapiens), O43603. GALR2-expressing cells, agonist activation read-out. activation, %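 (tested at 5 µM)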. actives 0.48% (n = 140,000);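 active means above mean plus 3 SD of all compounds, about 5% in these data, not always enough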;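 further: 0% = vehicle buffer wells and 100% = reference agonist at full effect; tested in CHO reporter cells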
# Target sequence (O43603 whole entry, looked up): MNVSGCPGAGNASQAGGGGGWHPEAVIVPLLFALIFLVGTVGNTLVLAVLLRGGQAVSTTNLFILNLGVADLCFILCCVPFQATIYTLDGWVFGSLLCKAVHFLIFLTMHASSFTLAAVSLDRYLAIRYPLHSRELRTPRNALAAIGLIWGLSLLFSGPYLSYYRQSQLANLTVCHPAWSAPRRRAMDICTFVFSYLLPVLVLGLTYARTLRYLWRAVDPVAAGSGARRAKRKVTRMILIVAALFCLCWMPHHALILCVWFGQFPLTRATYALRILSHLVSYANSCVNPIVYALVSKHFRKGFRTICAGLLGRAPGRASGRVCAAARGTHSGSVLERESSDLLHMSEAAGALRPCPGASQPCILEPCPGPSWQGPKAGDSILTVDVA
# PKD1 inh – inhibitors of human PKD1 kinase, biochemical, fluorescence polarization; PKD1 kinase fluorescence polarization assay; Serine/threonine-protein kinase D1 (Homo sapiens), Q15139; actives 0.056% (n = 200,000); inhibition, %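 (about 10 µM by stock and volumes)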;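 active means inhibition of 50% or more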;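 further: controls were vehicle for no effect and a reference inhibitor for full effect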
# HSV replic up – enhancers of HSV replication in host cells, fold increase, host cell viability; maximum fold increase; HSV replication augmentation in cells; actives 0.005% (n = 220,000);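 active means peak rise of 1.5-fold or more in the series; tested in PC3 cells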;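 further: first round at 10 µM; read as green reporter fluorescence; hits show the peak of a series up to 25 µM; 1 = signal of infected wells without compound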
# RGS16-Gao HTS – modulators of RGS16 binding to Galphao, primary screen, biochemical, human proteins, multiplexed bead flow cytometry | Regulator of G-protein signaling 16 (Homo sapiens) + Guanine nucleotide-binding protein … | binding response (% of control), % at 10 µM | actives 0.38% (n = 220,000) | bead-based flow cytometry RGS16-Galphao binding, fluorescence; actives lie on both sides | AID 1441, 2008;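 active means below 25% or above 175%, edge rows of some plates excepted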;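 further: Galphao activated by GDP with aluminum fluoride before binding; 100% = wells without compound and 0% = beads without RGS; some results beyond the cut were filed as inactive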
# Target sequence (O15492 whole entry, looked up): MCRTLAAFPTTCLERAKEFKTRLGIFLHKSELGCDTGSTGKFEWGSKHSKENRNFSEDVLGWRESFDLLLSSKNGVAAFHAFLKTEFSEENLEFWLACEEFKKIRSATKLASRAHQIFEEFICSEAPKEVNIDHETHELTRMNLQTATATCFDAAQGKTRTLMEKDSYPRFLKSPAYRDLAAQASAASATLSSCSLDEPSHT
# Target sequence (P09471 whole entry, looked up): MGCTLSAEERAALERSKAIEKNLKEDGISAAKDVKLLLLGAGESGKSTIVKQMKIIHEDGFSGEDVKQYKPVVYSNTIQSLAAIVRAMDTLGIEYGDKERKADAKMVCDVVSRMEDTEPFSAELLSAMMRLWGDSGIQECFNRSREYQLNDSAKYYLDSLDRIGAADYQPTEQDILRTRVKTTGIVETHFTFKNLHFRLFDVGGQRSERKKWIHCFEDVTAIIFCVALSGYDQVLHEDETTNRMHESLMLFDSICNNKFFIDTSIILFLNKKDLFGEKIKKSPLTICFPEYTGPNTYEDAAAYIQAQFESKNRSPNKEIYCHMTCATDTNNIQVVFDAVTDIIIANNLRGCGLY
# INS promoter inh – inhibitors of insulin promoter-driven GFP, primary screen, imaging, TRM-6 cells (human fetal islet line), eGFP reporter, cell count; reporter expression induced with tamoxifen; inhibition, % at 2 µM; actives 0.9% (n = 130,000); AID 1273, 2008;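 active means inhibition above the mean plus 3 SD, with well images judged a real hit on visual review, cut at about 60% in these data, passing the limit was not always enough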
# INS promoter inh cell count – second read-out of INS promoter inh, no call of its own (marks repeat the call); normalized cell count, %; measured here: cell count, toxicity; reference of the scale not given here;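 cells exposed to compound for 48 h; stained nuclei by imaging scaled within each plate; lower means fewer cells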
# HSV replic up primary fold – further read-out of HSV replic up, marked with its call; fold increase; compound at 10 µM; measured here: primary screen fold increase 10 uM; tested in PC3 cells;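 GFP signal in the first replicate; 1 = infected wells without compound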
# Active calls of the source: *; i = inactive; x = no result given.
SMILES,GALR2 agonist,PKD1 inh,HSV replic up,HSV replic up primary fold,RGS16-Gao HTS,INS promoter inh,INS promoter inh cell count
CSc1ccccc1NC(=O)CN(C)CC(=O)Nc1ccc(Cl)cc1F,-1.4,-4,i,1.1,102,12,57
Cc1cc(C)n(-c2ccc(C(=O)N3CCc4ccccc43)cc2)n1,-1.0,-18,i,0.78,102,x,x
COc1ccc(-c2nnc(SCC(=O)NCc3ccco3)o2)cc1,1.3,-2,i,0.96,107,-7,75
CCCCN1C(=O)/C(=C2\SC(N3CCCCC3)=NC2=O)c2ccccc21,3.8,-6,i,0.73,105,-25,81
Cc1cccc(NC(=O)c2ccc(C(=O)Nc3cccc(C)c3)nc2)c1,-0.4,17,i,0.64,107,-46,128
NC(=O)CCn1cnc2ccccc21,x,x,i,0.94,92,x,x
O=C(c1ccccc1)c1ccc2ccccc2n1,-2.9,4,i,1.1,98,-5,98
O=[N+]([O-])c1ccc2c(c1)CNc1ccccc1O2,x,-2,i,0.91,94,x,x
COc1c(OC(C)=O)ccc(/C=N\NC(=O)c2ccc(Br)cc2)c1[N+](=O)[O-],x,3,i,0.99,101,0,122
Nc1[nH]nc2nc(NCc3ccccc3)c3c(c12)CCN(Cc1ccccc1)C3,-1.4,1,x,x,100,x,x
CN1CCN(C(=O)c2cc(Cl)cc(Cl)c2NC(=O)c2ccco2)CC1,x,0,i,1.1,110,x,x
CC(C)(C)N/N=C/c1c(O)n(-c2ccc(Cl)cn2)c(=O)c2ccccc12,-0.8,-10,i,0.96,104,-10,82
CC(=O)Oc1c(Sc2ccccc2[N+](=O)[O-])c(C)nn1C(C)(C)C,x,-3,i,0.89,101,40,101
C=CCn1cc(C(=O)NCCCOCC)c(=O)c2cc(S(=O)(=O)N(CC)CC)ccc21,-1.8,-7,i,0.8,99,x,x
CCOc1ccc(N(C(=O)c2ccccc2Cl)C2=NC(C)(C)CS2)cc1,x,-1,i,1,104,x,x
CCOC(=O)Cc1csc(NC(=O)c2ccco2)n1,-1.1,-2,i,0.93,123,-81,29
COc1cc(NC(=O)CSc2nnc(C)s2)cc(OC)c1,-1.3,-3,i,1,105,x,x
COc1ccc(CNC(=O)C2CCCN2)cc1OC (configuration not stated),x,1,i,0.94,107,x,x
Cc1cc(C)c2nc(SCc3ccc([N+](=O)[O-])cc3)nc(C)c2c1,-1.9,-5,i,0.82,102,17,150
OC(c1ccccc1)(c1ccccc1)C1CCN(C(=S)NCCc2ccccc2)CC1,x,-1,i,0.96,102,x,x
COc1ccc(N=C2NC(=O)/C(=C/c3ccc(O)c(OC)c3)S2)cc1,0.0,4,x,x,102,3,108
CCn1c(SCC(=O)N/N=C/c2c[nH]c3ccccc23)nnc1-c1ccc(C(C)(C)C)cc1,-1.9,-8,i,0.79,101,17,108
O=C(N/N=C/C=C/c1ccco1)c1ccccc1Cl,x,-1,i,1.1,104,7,70
O=C(O)COc1ccc(C(=O)c2ccccc2)cc1,x,-3,i,0.99,101,31,48
CCS(=O)(=O)N1CCC(C(=O)NCc2ccc(F)cc2)CC1,-1.9,3,i,0.92,100,-14,165

# An excerpt from above in order of length of the SMILES, low to high.
SMILES,GALR2 agonist,PKD1 inh,HSV replic up,HSV replic up primary fold,RGS16-Gao HTS,INS promoter inh,INS promoter inh cell count
COc1ccc(CNC(=O)C2CCCN2)cc1OC (configuration not stated),x,1,i,0.94,107,x,x
O=C(N/N=C/C=C/c1ccco1)c1ccccc1Cl,x,-1,i,1.1,104,7,70
O=[N+]([O-])c1ccc2c(c1)CNc1ccccc1O2,x,-2,i,0.91,94,x,x
CN1CCN(C(=O)c2cc(Cl)cc(Cl)c2NC(=O)c2ccco2)CC1,x,0,i,1.1,110,x,x
CC(C)(C)N/N=C/c1c(O)n(-c2ccc(Cl)cn2)c(=O)c2ccccc12,-0.8,-10,i,0.96,104,-10,82
COc1c(OC(C)=O)ccc(/C=N\NC(=O)c2ccc(Br)cc2)c1[N+](=O)[O-],x,3,i,0.99,101,0,122
CCn1c(SCC(=O)N/N=C/c2c[nH]c3ccccc23)nnc1-c1ccc(C(C)(C)C)cc1,-1.9,-8,i,0.79,101,17,108

# Continuation.
SMILES,GALR2 agonist,PKD1 inh,HSV replic up,HSV replic up primary fold,RGS16-Gao HTS,INS promoter inh,INS promoter inh cell count
O=[N+]([O-])c1ccc(/C=N/n2cn[nH]c2=S)cc1,x,x,i,0.91,94,x,x
CC1CCCN(C(=O)C2CCN(CCCc3ccccc3)CC2)C1 (configuration not stated),-0.6,3,i,0.94,95,-56,120
COc1ccc(C(CNC(=O)COc2ccc(F)cc2Br)N2CCCC2)cc1 (configuration not stated),x,7,i,0.85,106,x,x
COc1ccc2cc3cc(C(=O)NCCN4CCN(Cc5ccccc5)CC4)oc3nc2c1,-0.5,13,i,0.69,99,34,88
Fc1ccc(COc2ccccc2CNc2nn[nH]n2)cc1,x,4,i,0.97,100,x,x
CCOc1ccc(NC(=O)c2ccccc2SC)cc1,x,x,i,0.96,100,x,x
Cc1c(NC(=O)C2CCCN(S(=O)(=O)c3cnc[nH]3)C2)c(=O)n(-c2ccccc2)n1C (configuration not stated),-2.0,-9,x,x,104,x,x
COCCCN(C(C)=O)c1nc(-c2ccc(OC)cc2)cs1,1.4,3,i,0.62,125,x,x
CCc1cccc(CC)c1NC(=O)CSc1nnc(C(C)C)n1CC,-1.4,-9,x,x,97,36,120
Nc1nc(NCc2ccco2)nc(NCCO)c1[N+](=O)[O-],x,x,i,0.95,93,x,x
COc1cccc(/C=C/C(=O)OCC(=O)Nc2ccc(N3CCOCC3)cc2)c1OC,x,-6,i,0.8,128,0,102
Clc1ccc(-c2nnc3sc(-c4ccc(Br)o4)nn23)cc1,0.1,-5,i,1,96,-11,203
CCNc1nnc(-c2ccc(C)cc2)o1,-2.0,-25,i,0.86,95,0,157
Cn1c(SCc2cccnc2)nc2cccnc21,-2.7,3,i,0.99,102,-6,116
CCC(C)[C@@H](C(=O)N1CCNCC1)n1cc(CCCCN)nn1 (some centres not stated),x,-4,i,1,99,x,x
CS(=O)(=O)NNC(=O)Cn1nnc(-c2cc(C(F)(F)F)cc(C(F)(F)F)c2)n1,x,x,i,1.1,105,x,x
COc1ccc(N2CCCCn3c2nc2c3c(=O)[nH]c(=O)n2C)cc1,-0.9,-5,i,0.86,100,-15,101
C#CC1(O)CC(C)NCC1(C)CCC#N (configuration not stated),-0.9,8,i,1,101,-17,103
Cc1ccccc1Oc1ccc(NC(=O)C2CC=CCC2C(=O)O)cc1 (configuration not stated),-0.5,5,i,0.92,102,42,128
CCc1nc2ccccc2n1CCC(=O)O,-2.2,-6,i,0.87,106,-238,76
Cc1c(N2C(=O)CSC2c2ccccc2)c(=O)n(-c2ccccc2)n1C (configuration not stated),x,x,i,0.96,90,x,x
CCC1CCCCN1CCCNC(=O)c1cn(CC)c2ccc(S(=O)(=O)N3CCc4ccccc4C3)cc2c1=O (configuration not stated),x,3,i,0.73,96,0,67
O=C(NC1(C(F)(F)F)NC(=O)N(C2CCCCC2)C1=O)c1cccs1 (configuration not stated),-1.4,-4,i,0.86,100,38,99
O=C(Cc1cccs1)Nc1ccc(C(=O)O)cc1,-1.4,-8,i,0.9,108,x,x
Cc1ccnc(NC(=O)Cc2ccc(F)cc2)n1,x,x,i,0.98,102,x,x
SMILES,GALR2 agonist,PKD1 inh,HSV replic up,HSV replic up primary fold,RGS16-Gao HTS,INS promoter inh,INS promoter inh cell count
COC(=O)COc1cccc2c(=O)n(CC(=O)Nc3ccc4c(c3)OCCO4)ccc12,x,-5,i,0.89,101,x,x
Cc1c(N=Cc2c(O)n(C3CCCCC3)c(=O)[nH]c2=O)c(=O)n(-c2ccccc2)n1C,-1.1,10,i,1.1,106,-15,73
CCOc1ccc(NC(=O)CCS(=O)(=O)c2cccc3nsnc23)cc1,-0.8,-6,i,1,100,0,73
CCc1ccc(C2C(C#N)=C(N)OC3=C2C(=O)CCC3)s1 (configuration not stated),x,4,i,1,109,x,x
CCOc1ccc(-c2nnc3ccc(SCC(=O)Nc4nc5ccccc5s4)nn23)cc1,-1.1,-4,i,1.2,93,x,x
FC(F)(F)c1cnc(COc2ccc(Cl)cc2Cl)c(Cl)c1,x,x,i,1,105,x,x
O=C(c1ccc(Cl)c([N+](=O)[O-])c1)N1CCN(C(=O)c2ccco2)CC1,x,-7,i,1.6,99,x,x
O=C(O)COc1ccc(Br)cc1/C=N/O,-3.0,-15,i,0.85,100,50,103
COc1ccc(/C=C(\C#N)C(=O)OCC(=O)NC(=O)NCCC(C)C)cc1,x,-2,i,1.1,99,-20,53
O=C(OCc1nc2scc(-c3ccccc3)c2c(=O)[nH]1)c1cccc([N+](=O)[O-])c1,-1.1,-2,i,1.1,100,x,x
O=C(CC(Cc1ccccc1)c1ccco1)NC1CCCCC1 (configuration not stated),-1.3,6,i,1.2,111,-3,141
COc1cc(C2C(C(C)=O)=C(O)C(=O)N2CCc2ccc(OC)c(OC)c2)ccc1O (configuration not stated),-2.1,-4,i,0.98,98,x,x
COc1ccc(C2/C=C\CN(S(=O)(=O)c3cccc4cccnc34)CC(=O)N2Cc2ccc(F)cc2)cc1 (configuration not stated),x,x,i,1,105,x,x
COc1cc([N+](=O)[O-])cc2sc(NC(=O)c3c(F)cccc3F)nc12,x,-2,i,0.86,91,-6,111
COC(=O)CC1SC(=O)NC1=O (configuration not stated),-1.8,-3,i,0.97,103,41,81
CC(=O)N1N=C(c2ccc3ccccc3c2)OC1(C)C,-1.3,8,i,1.1,128,56,76
COc1cc(C(=O)O)cc(NC(=O)c2cccs2)c1OC,-2.3,-15,i,1,117,6,98
CN=c1sc2ccccc2n1CC(O)c1ccccc1 (configuration not stated),x,-3,i,0.94,107,x,x
CCc1cc2cc(C)cc(C)c2nc1SCC(=O)N1CCCC1,-1.0,-6,i,1,98,47,158
COc1ccc(S(=O)(=O)N2CCOCC2)c(C)c1C,-1.7,1,i,0.91,103,-331,80
CC(C)OCC(O)CCc1n[nH]c(=S)n1-c1ccccc1 (configuration not stated),-0.7,-4,i,0.97,101,x,x
Clc1ccccc1Cn1nnc(-c2cccs2)n1,0.0,3,i,1,90,i,61
Fc1ccc(/C=N/n2cnn(Cc3ccccc3Cl)c2=S)cc1,x,-5,i,0.95,116,x,x
Cc1ccc(Oc2ccc3c(c2)C(=O)N(c2cccc4cccnc24)C3=O)cc1,-2.5,12,i,0.78,97,-23,105
CCc1nnc(NC(=O)CSc2nnc(C)n2Cc2ccccc2)s1,-2.4,-1,x,x,91,i,42
SMILES,GALR2 agonist,PKD1 inh,HSV replic up,HSV replic up primary fold,RGS16-Gao HTS,INS promoter inh,INS promoter inh cell count
CSC1=NCCN1C(=O)c1ccc(S(=O)(=O)N2CCOCC2)cc1,-2.0,0,i,0.74,104,x,x
COc1ccc(OC)c(S(=O)(=O)NC(N)=NCCc2ccccc2OC)c1,x,0,x,x,148,-31,90
CCn1c(=NC(=O)c2ccco2)sc2cccc(F)c21,-1.6,-1,i,1.1,101,x,x
Cc1ccc(C(=O)Cn2c3[n+](c4ccccc42)CC(O)CS3)cc1 (configuration not stated),x,-1,i,1,98,x,x
CNC1(c2nnnn2-c2ccccc2C)CCOC(C)(C)C1 (configuration not stated),x,x,i,1,92,x,x
Nc1c(C(O)(C(F)(F)F)C(F)(F)F)ccc2ccccc12,-5.0,-6,i,1,86,x,x
Cc1[nH]nc2c1C(c1ccc(F)cc1)C(C#N)=C(N)O2 (configuration not stated),-0.5,1,i,0.91,99,-73,101
CS(=O)(=O)NCCNc1ncc(C(F)(F)F)cc1Cl,x,1,i,1,105,x,x
COc1ccc(S(=O)(=O)N(C)c2ccc(C(=O)NCC3CCCO3)cc2)cc1 (configuration not stated),-1.3,-8,i,0.96,102,29,140
CCOC(=O)C1(Cc2ccccc2C(F)(F)F)CCN(C(=O)c2cc(C(C)=O)n[nH]2)CC1,x,1,i,0.93,94,x,x
CCC(C)C(=O)Nc1nc2ccc(S(C)(=O)=O)cc2s1 (configuration not stated),x,9,i,0.93,111,27,121
COCCOC(=O)c1c(C)oc2ccc(OCC=C(C)C)cc12,0.1,16,i,0.97,100,-87,136
O=C(Cn1nc2n(c1=O)-c1ccccc1SC2)N/N=C/c1cccs1,x,x,i,1,100,x,x
CCC(CC)c1nnc(NC(=O)Cc2cccs2)s1,x,5,i,0.91,99,x,x
C=C(C)CSc1nnc(-c2ccc(OC)c(OC)c2)n1N,-2.4,-5,i,0.95,94,10,91
O=C(O)CNC(=O)c1ccccc1F,-1.7,-4,i,1,x,31,72

# Compounds were not picked by outcome; overall some 1.3% were active at least once.
